GLA inh pH 4.5 – alpha-galactosidase A (human) inhibition, pH 4.5. P06280. purified enzyme, 4-MU-alpha-Gal fluorescence, pH 4.5. activity change, negative = inhibition, % at 105 µM. 230,000 tested, under 10 active. AID 1467; inconclusive = small, poorly fitted or top-dose-only inhibition, or a rising curve; inactive = flat fitted curve, though single readings scatter; no compound was filed as active;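 further: 0% = full activity with enzyme and -100% = basal without enzyme; dose as in the result columns while the protocol names 77 µM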
Rango release inh – prevents RanGTP from dissociating the Rango-importin beta complex; O95149+P62826; Biochemical FRET Rango-importin beta, RanGTP-induced dissociation; Potency, µM (top dose mostly 46.1 µM), inactives show at the highest dose activity change, negative = inhibition; 340,000 compounds, 0.071% hits; active means falling FRET ratio curve, often poorly fitted, with flat reads before Ran was added; inconclusive means other falling curves, or compound fluorescence or quenching; inactive means flat or rising ratio curve;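 further: potency means the concentration at half of the fitted maximal effect; % of control where 0% means no effect; nearly all actives have a fitted effect of over 45% in size; -100% = wells without RanGTP and RCC1; the record marks most hits as doubtful in a second field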
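Two FRET readings bracket the reaction: one 5 min after compound meets Rango–importin beta, another 45 min after RanGTP-RCC1 (0.6 uM Ran, 0.2 uM RCC1, 2 mM GTP) is added. Only the second defines inhibition.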
miR-21 reporter – raises the signal of a miR-21 reporter; HeLa miR-21 FLuc reporter, luciferase, 48 h; 340,000 tested, under 10 active; Potency, µM (series often up to 38.3 µM), for inactives: at the top dose reporter change, positive = more light; AID 2288; active = well fitted rising curve with a large enough effect; inconclusive = small, poorly fitted or top-dose-only effect; inactive = no such curve, though single readings can be large or run the other way;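 further: % of control where 0% means no effect; miR-21 action dims this reporter so a rising signal means less miR-21 action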
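Using DMEM plus 10% FBS, HeLa miR-21-FLuc cells are incubated with test compounds (final up to about 40uM) for 48 hours; firefly luciferase signal is then imaged following reagent-mediated lysis.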
Rango-impB inh – Rango-importin beta binding inhibition. Potency, µM (highest dose often 92.2 µM), inactives show at the top dose inhibition of complex formation. Q14974. 340,000 compounds, 0.031% hits. Rango CFP/YFP FRET sensor + importin beta, 45 min. AID 540263; active = rising FRET ratio curve, often small or poorly fitted; inconclusive = mostly compound fluorescence or quenching in the first reads; inactive = flat curves in all reads;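 further: potency means the concentration at half of the fitted maximal effect; 0% = DMSO wells and 100% = buffer wells lacking importin beta; nearly all actives have a fitted effect of over 15% in size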
Target sequence (Q14974 whole entry, looked up): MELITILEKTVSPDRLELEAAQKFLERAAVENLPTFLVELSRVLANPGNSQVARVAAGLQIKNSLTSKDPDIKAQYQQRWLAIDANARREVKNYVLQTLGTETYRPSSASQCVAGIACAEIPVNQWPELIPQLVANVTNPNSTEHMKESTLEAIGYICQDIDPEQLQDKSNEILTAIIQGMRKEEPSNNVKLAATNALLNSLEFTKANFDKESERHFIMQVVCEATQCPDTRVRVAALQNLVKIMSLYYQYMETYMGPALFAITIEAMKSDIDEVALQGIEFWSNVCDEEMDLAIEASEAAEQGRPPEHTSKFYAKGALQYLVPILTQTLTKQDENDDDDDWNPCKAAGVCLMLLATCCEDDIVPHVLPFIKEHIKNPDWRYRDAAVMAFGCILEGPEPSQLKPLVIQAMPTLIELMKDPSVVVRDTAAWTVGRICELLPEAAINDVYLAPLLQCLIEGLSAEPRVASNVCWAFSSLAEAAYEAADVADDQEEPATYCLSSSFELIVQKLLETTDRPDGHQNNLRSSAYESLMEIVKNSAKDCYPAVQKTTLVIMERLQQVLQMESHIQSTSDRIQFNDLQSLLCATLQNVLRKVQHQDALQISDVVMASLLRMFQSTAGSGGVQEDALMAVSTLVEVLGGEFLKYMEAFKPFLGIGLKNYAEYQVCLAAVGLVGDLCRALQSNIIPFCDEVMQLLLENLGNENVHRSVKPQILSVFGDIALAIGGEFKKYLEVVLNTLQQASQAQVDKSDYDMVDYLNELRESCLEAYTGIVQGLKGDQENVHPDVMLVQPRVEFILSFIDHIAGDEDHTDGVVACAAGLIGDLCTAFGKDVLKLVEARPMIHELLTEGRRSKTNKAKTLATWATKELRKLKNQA
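FRET biosensor Rango (snurportin 1 IBB between N-terminal EYFP and C-terminal Cerulean), 50 nM in PBS/1 mM DTT/0.02% Tween-20/0.1% BSA, preincubated 5 min RT with compound; 0.125 microM importin beta added, 45 min RT, CFP/YFP FRET ratio read.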
* hit, by the source's call; ? = inconclusive; . = not tested or not shown; [ ] = another dose, or the depositor's remark.

GLA inh pH 4.5	Rango release inh	miR-21 reporter	Rango-impB inh	Molecule
.	-15%	-2%	-2.8%	COc1ccc(S(=O)(=O)N2CCC(NC(=O)C3CCCCC3)CC2)cc1
-5	1%	-1%	0.0%	CC(C)(C)OC(=O)N1CC2Cc3[nH]c(=O)ccc3C(C2)C1 (stereo unspecified)
-2	5%	-9%	4.7%	CC(Nc1nc(N2CCN(S(C)(=O)=O)CC2)nc2ccccc12)c1ccccc1 (stereo unspecified)
-10	-11%	18%	5.3%	Cc1cccc(NC(=O)c2ccc(C3SCC(=O)N3CCc3ccccc3)cc2)c1 (stereo unspecified)
4	.	-5%	.	CCOC(=O)Cn1nnnc1C(CC)N(Cc1cc2c(C)cc(C)cc2[nH]c1=O)C1CCCC1 (stereo unspecified)
5	-5%	-7%	-5.9%	Cc1cc(COc2ccccc2OCCN2CCN(C)CC2)no1
.	3%	.	-1.2%	COc1ccc(C(=O)NCCS(=O)(=O)NCC2CCCO2)cc1 (stereo unspecified)
.	2%	6%	-0.6%	C[C@]12C(=O)N(c3ccc(C(F)(F)F)cc3)C(=O)N1[C@@H]1c3ccccc3OC[C@@H]1[C@H]2c1ccccc1
.	-27%	.	-3.6%	CC1C(=O)N2CCCc3cc(S(=O)(=O)Nc4ccccc4C(N)=O)cc1c32 (stereo unspecified)
?	-19%	-3%	?	COCCCn1c(-c2cccs2)nc2nc3ccccc3nc21
-3	15%	-4%	0.7%	COc1cccc(N2C(=O)N(c3ccccc3)C3CS(=O)(=O)CC32)c1 (stereo unspecified)
2	11%	-1%	-4.0%	COc1ccc(CNC(=O)C2Cc3ccccc3CN2C(=O)c2ccco2)cc1 (stereo unspecified)
-7	20%	-6%	2.7%	COC(=O)c1cc(OC)c(OC)cc1NC(=O)c1cc(-c2ccccc2)nc2ccccc12
7	12%	0%	1.4%	CCOc1ccc(/C=N/NC(=O)CC(=O)NCc2ccccc2)cc1
.	-25%	0%	-4.5%	NS(=O)(=O)c1ccc(NC(=O)C2Cc3ccccc3CN2C(=O)c2ccco2)cc1 (stereo unspecified)
-8	1%	1%	0.4%	Fc1ccccc1N1CCN(C(c2cccs2)c2nnnn2CCc2ccccc2)CC1 (stereo unspecified)
.	-19%	5%	-1.8%	O=C(Nc1cccc(Cl)c1)Nc1ccc2nccnc2c1
1	-8%	0%	-2.0%	CS(=O)(=O)N(CC(=O)NCCC1=CCCCC1)c1cccc([N+](=O)[O-])c1
-12	-7%	-1%	0.4%	CC(C)(C)OC(=O)N1CCC(c2cc(=O)n3[nH]cc(C(=O)Nc4ccc(F)c(Cl)c4)c3n2)CC1
-1	0%	-46%	0.0%	CC(C)CCC(C)NC(=O)c1ccc2nccnc2c1 (stereo unspecified)
.	9%	.	6.0%	CCOC(=O)C1CCCN(C(=O)C2CCN(S(=O)(=O)c3ccc(Cl)c(C(F)(F)F)c3)CC2)C1 (stereo unspecified)
4	1%	16%	5.7%	CCOCCCNC(=O)c1cc(=O)n(Cc2cccc(C)c2)c2ccccc12
.	0%	13%	0.7%	CNC(=S)N(CCc1c(C)[nH]c2ccc(OC)cc12)Cc1ccco1
2	25%	8%	-1.2%	O=C(CSc1nc2ccccc2[nH]1)N1CCN(c2ccc(F)cc2)CC1
.	1%	-5%	4.4%	CCNC(=O)C(=O)NCC(c1ccc2c(c1)OCO2)N1CCOCC1 (stereo unspecified)
-1	0%	-48%	-1.2%	COc1cc(/C=N/Nc2ccccn2)ccc1OCC(C)C
0	-2%	-7%	0.6%	O=C(NCc1ccc2c(c1)OCO2)C1CCCN1C(=O)Nc1cccc(F)c1 (stereo unspecified)
.	3%	-1%	?	COc1cccc(CN(C)C(=O)c2cc(-c3ccc(OC)c(OC)c3)nc3ccccc23)c1
-2	-6%	22%	-3.6%	Cc1ccc(OCCN2CCN(C(=O)CCC(=O)Nc3nnc(CC(C)C)s3)CC2)cc1
.	-13%	.	-2.5%	Cc1cc(NC(=O)COC(=O)CNC(=O)c2cccs2)c([N+](=O)[O-])cc1C

Another view of part of the listing above.
mol: CC1C(=O)N2CCCc3cc(S(=O)(=O)Nc4ccccc4C(N)=O)cc1c32 (stereo unspecified)
  GLA inh pH 4.5 = .; Rango release inh = -27%; miR-21 reporter = .; Rango-impB inh = -3.6%

mol: Cc1cc(NC(=O)COC(=O)CNC(=O)c2cccs2)c([N+](=O)[O-])cc1C
  GLA inh pH 4.5 = .; Rango release inh = -13%; miR-21 reporter = .; Rango-impB inh = -2.5%

Continuation.
GLA inh pH 4.5	Rango release inh	miR-21 reporter	Rango-impB inh	Molecule
-7	0%	-2%	-1.3%	O=C(NCc1ccco1)c1ccc2c(c1)N(Cc1ccccc1)C(=O)CS2=O (stereo unspecified)
4	11%	-5%	0.6%	CCOc1cccc(NC(=O)Cn2nc(-c3ccc4c(c3)OCCO4)ccc2=O)c1
1	10%	-6%	4.2%	ON(Cc1c(F)cccc1Cl)Cc1c(F)cccc1Cl
2	14%	-5%	7.0%	CC(C)NC(=O)Cn1cc(C#N)c2cc(Br)ccc21
-1	.	-44%	.	O=C(NC(=O)c1ccccc1)NC1(C(F)(F)F)OCCO1
-4[21.1 µM]	-10%	-8%	?	Cc1ccn2c(NC3CCCC3)c(-c3ccsc3)nc2c1
.	3%	-9%	-0.4%	CCCc1cc(Nc2ccccc2)n2ncnc2n1
.	2%	0%	-0.6%	Cc1cc(NC(=O)CN2C(=O)c3ccccc3S2(=O)=O)no1
0	0%	-6%	-0.3%	COCC(=O)N(Cc1ccccc1)c1ccccn1
.	-3%	.	-1.4%	COc1ccc(C(=O)NCCS(=O)(=O)N2CCc3ccccc3C2)c(OC)c1
.	-6%	12%	-1.5%	O=C(COC(=O)CN1C(=O)c2ccccc2C1=O)NC1CCCCC1
-6	1%	-11%	2.2%	Cc1cnc(C(=O)OCC(=O)Nc2ccc(Oc3ccccc3)cc2)cn1
.	22%	-6%	0.3%	O=C(NCCCN1CCOCC1)c1cc2c(s1)-c1ccccc1OC2
-2	-11%	-18%	1.6%	CN(C)S(=O)(=O)N1CCN(c2ccc(Cl)cc2)CC1
-2	-14%	2%	4.3%	CCOC(=O)c1sc(NC(=O)CCC(=O)O)nc1C
-3	-3%	-35%	2.1%	O=c1ncn(-c2ccccc2F)c2ncccc12
.	1%	.	-4.4%	CCCn1nc(C(=O)OCc2nc(N)nc(Nc3ccccc3C)n2)c2ccccc2c1=O
5	1%	-7%	-1.6%	CCn1c(COc2ccccc2OC)nnc1SCC#N
-12	1%	-5%	2.1%	COc1cc(C(=O)OCC(=O)Nc2ccc3c(c2)OC(F)(F)O3)ccc1OCc1c(C)noc1C
.	0%	1%	2.6%	O=C(CSc1nncc2ccccc12)Nc1ccc(C(=O)O)cc1
.	0%	.	2.8%	CN(C(=O)c1ccc(NC(=O)C2CCCN(C(=O)OC(C)(C)C)C2)cc1)C1CCC1 (stereo unspecified)
.	16%	11%	-2.1%	CC(C)Cn1c(=O)c2c(nc3n2CC(C)CN3Cc2ccccc2)n(C)c1=O (stereo unspecified)
1	?	-5%	?	O=C(O)C1Sc2[nH]c(=O)sc2C2c3cc(Br)ccc3OC(=O)C12 (stereo unspecified)
-9	1%	0%	4.8%	COc1ccccc1N1C(=S)N=C(Nc2c(C)cccc2C)C12CCCC2
6	7%	0%	-0.1%	COc1ccc(C(=O)Nc2ccc(C(=O)OCC(=O)c3cccc4ccccc34)cc2)cc1
.	-9%	.	-3.4%	O=[N+]([O-])c1ccc(CS(=O)Cc2ccccc2)cc1 (stereo unspecified)
7	20%	-13%	8.8%	NC(=S)c1ccc(C(N)=S)o1
-1	-1%	4%	-0.7%	Oc1ccc(Br)cc1C=Nc1ccc2[nH]ncc2c1
10	-3%	4%	3.8%	O=C(NCCCn1ccnc1)C(=O)NCC1OCCCN1S(=O)(=O)c1ccc(F)cc1 (stereo unspecified)
.	-3%	8%	-0.9%	Cc1nc(C)c(-c2ccc(SCC(=O)Nc3ccc(C)c(Cl)c3)nn2)s1

Quoted from above for reference:
GLA inh pH 4.5	Rango release inh	miR-21 reporter	Rango-impB inh	Molecule
-7	0%	-2%	-1.3%	O=C(NCc1ccco1)c1ccc2c(c1)N(Cc1ccccc1)C(=O)CS2=O (stereo unspecified)
4	11%	-5%	0.6%	CCOc1cccc(NC(=O)Cn2nc(-c3ccc4c(c3)OCCO4)ccc2=O)c1
1	10%	-6%	4.2%	ON(Cc1c(F)cccc1Cl)Cc1c(F)cccc1Cl
2	14%	-5%	7.0%	CC(C)NC(=O)Cn1cc(C#N)c2cc(Br)ccc21
-1	.	-44%	.	O=C(NC(=O)c1ccccc1)NC1(C(F)(F)F)OCCO1
-4[21.1 µM]	-10%	-8%	?	Cc1ccn2c(NC3CCCC3)c(-c3ccsc3)nc2c1

3 entries from above, sorted by number of heavy atoms, falling.
GLA inh pH 4.5	Rango release inh	miR-21 reporter	Rango-impB inh	Molecule
.	-3%	.	-1.4%	COc1ccc(C(=O)NCCS(=O)(=O)N2CCc3ccccc3C2)c(OC)c1
.	-6%	12%	-1.5%	O=C(COC(=O)CN1C(=O)c2ccccc2C1=O)NC1CCCCC1
5	1%	-7%	-1.6%	CCn1c(COc2ccccc2OC)nnc1SCC#N

Later entries.
GLA inh pH 4.5	Rango release inh	miR-21 reporter	Rango-impB inh	Molecule
0	5%	0%	-1.4%	COC(=O)c1ccc(S(=O)(=O)c2ccc(C(=O)OC)s2)s1
-4	7%	-2%	-1.9%	COc1ccc(NC(=O)c2nn(C)cc2[N+](=O)[O-])cc1
2	4%	21%	0.5%	CCN(CC)c1ccc(NC(=O)c2cc(OC)cc(OC)c2)c(C)c1
-7	0%	4%	-0.3%	Cc1cc(=O)n2nc(N3CCCC3C(=O)NCCCN3CC(C)CC(C)C3)sc2n1 (stereo unspecified)
1	35%	1%	4.4%	CCCCN(C(=S)NC(=O)c1ccccc1)c1c(N)n(Cc2ccccc2)c(=O)[nH]c1=O
-23	10%	-2%	-2.3%	CC12CN(NC(=O)c3ccccc3F)C3(C#N)CC1CCC23C (stereo unspecified)
-20	?	-9%	?	CC1CC1c1ccc(/C=C(\C#N)C(=O)Nc2ccc(Cl)cc2Cl)o1 (stereo unspecified)
.	-8%	.	-2.6%	CCN(CC)CCCn1c2c(c(SCC(=O)Nc3ccc4c(c3)OCO4)nc1=O)CCC2
-1	1%	7%	3.4%	CC1CCN(C(=O)CN(c2ccc(Cl)c(C(F)(F)F)c2)S(C)(=O)=O)CC1
.	-11%	1%	?	O=C(O)C1Nc2c(Cl)cc(Cl)cc2C2C=CCC12 (stereo unspecified)
-9	-2%	0%	-4.1%	N#CC(c1cccc(C(F)(F)F)c1)(c1ncc(C(F)(F)F)cc1Cl)N1CCOCC1 (stereo unspecified)
.	3%	6%	5.3%	CC(=O)c1ccc(OCCNS(=O)(=O)c2ccc(-n3cnnn3)cc2)cc1
7	-4%	-2%	1.6%	Cc1cc(NC(=O)CSc2nc3ccccc3c(=O)n2Cc2ccc(F)cc2)no1
.	9%	.	-1.7%	C#CCOCCOCCOCCNc1nc(N2CCN(C(=O)[C@H](CCC(=O)O)n3cc([C@@H](N)[C@H](C)CC)nn3)CC2)nc(N2CCN(C(=O)[C@H](CCCCN)n3cc([C@@H](N)CC(N)=O)nn3)CC2)n1
9	0%	?	2.3%	CC(C)(C)CC(C)(C)NC(=S)NC1CCN(Cc2ccccc2)CC1
.	20%	0%	-1.3%	CCCCN(C)C(=O)C1CCN(Cc2cccnc2)CC1
0	0%	2%	-0.3%	CCOC(=O)C1=C(O)C(Nc2nccs2)(C(F)(F)F)N=C1C (stereo unspecified)
0	-5%	-8%	?	COC(=O)c1ccc(/C=C/C(=O)O)cc1
-5	-7%	1%	0.0%	COc1ccc(S(=O)(=O)N2CCN(C(=O)CCC3CCCC3)CC2)cc1

Source: PubChem BioAssay

These rows are one share of the data; count on the stated rates, not on these rows.
